Screens deposited in PubChem BioAssay by several laboratories.
BJeLR lethal – BJeLR cell viability loss. BJeLR (HRASV12) viability, CellTiter-Glo ATP luminescence, 48 h; reference of the scale not given here. inhibition, % (concentration not given with the values). 300,000 compounds, 0.17% hits. AID 1554;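 active = replicate mean above 50%; inconclusive = above 50% but judged a plate artefact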;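 also: 50 nL library stock added to about 25 µL; numbers are from one replicate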
RN4220 kill – S. aureus RN4220 growth inhibition; inhibition, % (no concentration beside the values); OD600, 16 h; 330,000 compounds, 0.33% hits;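 active = z-score of -3 or lower and OD600 up to 0.18 on both plates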;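 also: plate controls were untreated cells for no effect and reference antibiotic for full effect; stock transfer was 100 nL into about 80 µL; one replicate is shown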
Mtb hypoxia rep – reduces hypoxia-regulated biosensor signal in M. tuberculosis | fluorescence inhibition, % (no concentration beside the values) | 300,000 compounds, 0.1% hits | AID 1159583 | M. tuberculosis hypoxia-regulated fluorescent reporter, fluorescence;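 active = 35 to 45% if threefold the growth effect, above 45% if 1.5-fold the growth effect; inactive = the rest, general growth blockers included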;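 also: wells of about 50 µL received 100 nL stock; 0% = vehicle wells and 100% = reference inhibitor wells; whole bacteria with a GFP reporter of the hypoxia response; strong numbers were not always called active; many hits fall short of the cut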
ugtP null kill – compounds lethal to S. aureus RN4220 ugtP deletion mutant; 330,000 compounds, 0.54% hits; OD600 growth, 16 h; some inactives read as strong as hits; growth inhibition, % (concentration not given with the values);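 active = z-score under -3 and OD600 up to 0.15 on both plates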;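 also: plate controls were untreated wells for no effect and antibiotic for full effect; wells of about 80 µL received 100 nL stock; the first replicate is given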
Autofluor counter – counter-screen for toxin protease inhibitors: compound fluorescence | 360,000 compounds, 3.1% hits | compound autofluorescence counterscreen, microsphere flow cytometry; active compounds read high | AID 624483 | fluorescence intensity (concentration not given with the values);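 active = at least 3 SD above the mean of all compounds, about 16000 in these data; inconclusive = too few beads counted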;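 also: 100 nL of 1 mM stock went into each well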
PrP UTR inh – inhibition of PrP 5' UTR reporter expression; cell-based PrP 5' UTR mRNA reporter, plate reader; AID 488862; 340,000 compounds, 0.35% hits; inhibition, % (concentration not given with the values);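 active = every replicate at 50% or more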;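 also: 0 = median of the neutral control wells; tested in H4 reporter cells; numbers are from one replicate; inactives centre near -14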
Mtb hypoxia rep growth – further read-out of Mtb hypoxia rep, marked with its call; growth inhibition, %; measured here: M. tuberculosis growth (absorbance);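 0% = vehicle and 100% = reference antibiotic; read after six days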
* marks the source's active call; other numbers are inactive results; u = inconclusive; x = not tested or not shown.

Sequence of screens – BJeLR lethal, RN4220 kill, Mtb hypoxia rep, Mtb hypoxia rep growth, ugtP null kill, Autofluor counter, PrP UTR inh
- CN(C)C(=O)/C(=C\c1ccncc1)NC(=O)c1ccccc1
→ -3, 2.8, 10, 6, 10, 2529, -3
- CCN(CC)S(=O)(=O)c1cccc(C(=O)Nc2cccnc2)c1
→ -10, 2.3, 4, 3, -1, 22467*, -53
- CC(=O)Nc1ccc(S(=O)(=O)NN=Cc2ccc(C)o2)cc1
→ x, 2.3, 7, -2, 12, x, x
- O=C(CNC(=O)c1cccs1)c1ccc(Cl)cc1
→ -1, 3.3, 10, 11, 16, 3255, -51
- O=C(NC1CCCCC1)C(c1cccnc1)N(C(=O)c1csnn1)C1CCCC1 (stereo not given)
→ -5, 2.7, 6, 11, -2, 8528, -12
- CC(C)(Oc1ccc(Cl)cc1)C(=O)O
→ 1, 9.3, 5, 2, 4, 5854, -18
- COCc1cc(=O)[nH]c2c1c(-c1ccccc1)nn2C
→ -1, 2.1, 7, 0, 2, 4220, -14
- O=C1CCC(=O)N1CCSC(=S)N1CCOCC1
→ -3, 1.7, 10, 16, 5, 4624, -18
- COc1ccccc1C(=O)NCC(=O)N/N=C/c1cc(Br)ccc1OCc1ccccc1
→ -3, x, x, x, x, 1890, -20
- O=C(O)c1ccc(COc2ccccc2/C=C2/NC(=O)N(c3cccc(Cl)c3)C2=O)cc1
→ 6, 8.1, x, x, -5, 2069, -14
- N/C(=N\OC(=O)c1cc(-c2ccccc2)nc2ccccc12)c1cccnc1
→ -9, 2.0, 4, 1, -2, 7237, -6
- COc1cc2c(cc1OC)C(c1ccc(-c3cc(Cl)ccc3Cl)o1)=NCC2
→ 13, 1.8, x, x, 0, u, 9
- O=C(CN(c1ccc(Cl)cc1)S(=O)(=O)c1ccc(Cl)c([N+](=O)[O-])c1)NCCc1ccccc1
→ 7, 0.7, 2, 0, 6, 4380, -7
- O=C(COc1ccccc1)N1CCN(c2nnc(-c3ccccc3)c3ccccc23)CC1
→ 4, 2.7, -12, -10, -9, 5410, -17
- CCCn1nc(C(=O)N2CCc3ccccc3C2)c2ccccc2c1=O
→ 6, -0.9, x, x, -8, 2204, -7
- Cc1c(C(C)C)c(=O)n(-c2ccc(S(=O)(=O)N3CCOCC3)cc2)n1C
→ 2, 3.7, 2, 6, 2, 3698, -13
- O=C(Nc1ccc(NC(=O)C2CC2)nc1)c1cccc(F)c1
→ -5, -3.1, x, x, 7, 4883, -37
- CCOc1ccccc1C(=O)NCCC(=O)O
→ -10, -0.9, 9, 13, -5, 3978, -9
- COc1ccc(NC(=O)Nc2ccc(F)c(F)c2)c(OC)c1
→ -1, 3.8, 2, -1, 4, 2022, -26
- COc1ccc(CNC(=O)CCn2c(=O)c3cccn3c3ccc(F)cc32)cc1
→ 0, 0.9, 0, -6, 6, 5523, -7
- Nc1nnc(SCC(=O)OCC(=O)NC2CCCCC2)s1
→ 1, 6.3, 3, 2, 2, 3381, -10
- CCOCCCNC(=S)Nc1ccc(S(N)(=O)=O)cc1
→ 2, 3.8, 18, 1, 4, 2053, -4
- COCC(C)NC(=O)c1ccc(N(C)C)cc1 (stereo not given)
→ 1, 7.0, 1, 1, 12, 17509*, -15
- CCN(CC)C(=O)c1sc(NC(=O)c2ccc(Br)o2)c(C(=O)OC)c1C
→ 9, 6.1, 11, 19, 1, 10136, -15
- CSc1ccc(C(=O)C2CCCN(C(=O)c3nonc3C)C2)cc1 (stereo not given)
→ -4, 5.5, 5, 10, 2, 5090, -12
- c1cnc(N2CCN(Cc3c[nH]c4ccccc34)CC2)nc1
→ 2, 3.8, 14, 9, 3, 3113, -8
- Cc1cc(SCC(=O)c2ccc(Cl)cc2)nc(=O)[nH]1
→ -5, -2.5, -4, 3, 17, 4917, -49
- COc1ccc(/C=C2\SC(=S)N(CCCC(=O)Nc3cccc(C(=O)O)c3)C2=O)cc1OC
→ 7, 9.8, -7, 9, 2, 5543, -5
- COc1ccc(CCNC(=O)CSc2nc3[nH]ncc3c(=O)n2-c2ccc(C)c(Cl)c2)cc1OC
→ -3, 11, 5, 15, 5, 4355, -6
- O=C1C2C3C=CC(C4CC34)C2C(=O)N1N=Cc1c[nH]c2ccccc12 (stereo not given)
→ x, 9.0, -2, 0, 15, x, x

Exported bar-delimited: 4 of the compounds above
structure | BJeLR lethal | RN4220 kill | Mtb hypoxia rep | Mtb hypoxia rep growth | ugtP null kill | Autofluor counter | PrP UTR inh
O=C(CN(c1ccc(Cl)cc1)S(=O)(=O)c1ccc(Cl)c([N+](=O)[O-])c1)NCCc1ccccc1 | 7 | 0.7 | 2 | 0 | 6 | 4380 | -7
O=C(COc1ccccc1)N1CCN(c2nnc(-c3ccccc3)c3ccccc23)CC1 | 4 | 2.7 | -12 | -10 | -9 | 5410 | -17
CCCn1nc(C(=O)N2CCc3ccccc3C2)c2ccccc2c1=O | 6 | -0.9 | x | x | -8 | 2204 | -7
Cc1c(C(C)C)c(=O)n(-c2ccc(S(=O)(=O)N3CCOCC3)cc2)n1C | 2 | 3.7 | 2 | 6 | 2 | 3698 | -13

Next section:
Sequence of screens – BJeLR lethal, RN4220 kill, Mtb hypoxia rep, Mtb hypoxia rep growth, ugtP null kill, Autofluor counter, PrP UTR inh
- O=C(C1CC1)N1CCc2cc(S(=O)(=O)N(CCO)Cc3ccccc3)ccc21
→ -12, -0.9, x, x, -7, 4300, -13
- COc1ccc(N2CC(C(=O)Nc3ccc(F)cc3F)CC2=O)cc1 (stereo not given)
→ 0, 2.9, 9, -7, -5, 2535, -2
- COc1ccc(NS(=O)(=O)c2cccc(NC(=O)CCC(=O)c3ccc(Cl)cc3)c2)cc1
→ 4, 11, 7, 5, -3, 2491, 0
- CN(CC(=O)Nc1cccc(F)c1)C(=O)CCNC(=O)c1ccco1
→ 2, 2.5, 9, 6, 7, 5142, -10
- COc1ccc(Oc2nc(C(F)(F)F)nc3ccccc23)cc1
→ -1, 3.9, x, x, 7, 2080, 14
- Nc1cccc(NC(=O)CCC(=O)NCc2ccco2)c1
→ -2, 4.7, 13, 14, 16, 3586, -14
- Oc1ccccc1N1CCN(C(=S)NCCc2ccccc2)CC1
→ -11, -5.2, 3, -6, -7, 2299, -29
- CCS(=O)(=O)N1N=C(c2cccc(NS(C)(=O)=O)c2)CC1c1cccs1 (stereo not given)
→ -2, 6.5, -6, -3, -1, 5225, -13
- COC(=O)[C@H](C)NC(=O)Nc1cccc(C(F)(F)F)c1
→ -6, -7.7, 13, 7, -6, 2884, -13
- Cc1cc(C)c(NS(=O)(=O)c2ccccc2)c(C)c1NS(=O)(=O)c1ccccc1
→ x, 16, 14, 11, -5, 3837, -23
- CCSc1nnc(NC(=O)CCNS(=O)(=O)c2ccccc2F)s1
→ -4, 1.0, 3, 9, -2, 3550, -5
- CC1CCC(NC(=O)CNC(=O)c2cccs2)CC1 (stereo not given)
→ -9, -1.8, 2, 14, -1, 5800, -62
- Cc1nc(-c2ccc(S(=O)(=O)N3CCN(c4ccccc4)CC3)cc2)co1
→ 8, 3.3, 5, -6, 9, 4288, -17
- COc1c(C(=O)Nc2ccc(Br)cn2)ccc2ccccc12
→ -4, -0.4, -5, -5, 16, 2975, -88
- Cc1ccc(C)c(N(CC(=O)NN=C2CCN(C)CC2)S(=O)(=O)c2ccccc2)c1
→ -12, -3.9, -3, -9, 0, 2037, -16
- CN(CC(=O)Nc1ccc(Cl)cc1)C(=O)CNC(=O)c1cccs1
→ x, 4.3, -2, -1, 4, x, -25
- O=C(Cc1ccc(Cl)cc1)Nc1ccc(C(=O)N2CCCCC2)cc1
→ 0, 1.5, 0, 3, 3, 5901, -44
- O=Cc1ccc(-c2ccc(F)cc2)o1
→ 13, -1.3, 7, 15, 5, 5240, -11
- COc1ccccc1OP(=O)(O)Oc1ccccc1OC
→ 2, 3.3, 13, 22, 3, 4316, -2
- COC(=O)/N=C(/Cc1ccc(OC)cc1)c1ccc(OC)cc1
→ -12, x, x, x, x, 5316, -8
- CCc1cccc(C)c1NC(=O)CSc1nc2ccncc2[nH]1
→ 2, 3.6, 4, 5, 8, 5473, -4
- Cc1ccc(NC(=O)c2nc[nH]c2C(=O)NC(CCCCNC(=O)OC(C)(C)C)C(=O)OC(C)(C)C)cc1 (stereo not given)
→ x, -6.3, -2, 4, -32, x, x
- Cc1cc(-c2nc(C)c(-c3nnc(SCC(=O)Nc4ccc(Cl)cc4)n3C)s2)no1
→ 16, 0.3, -3, 3, 1, 5284, x
- CCOc1ccc(CC(=O)NNC(=S)Nc2ccc(OC)c(OC)c2)cc1
→ 2, 0.5, 2, 12, -4, 4363, -7
- CCCNS(=O)(=O)c1ccc(OCC(=O)N2CCN(Cc3ccc4c(c3)OCO4)CC2)c(C)c1
→ -3, -1.9, -15, 2, -7, u, 0
- C1=CC2C3C=CC(C3)C2C1 (stereo not given)
→ x, 4.2, 10, 7, 7, 6446, -6
- O=C(O)CCCn1cc(NC(=O)COc2ccc(F)cc2)cn1
→ 0, 6.0, 0, 0, 4, 5420, -9
- Cc1ccc(NS(=O)(=O)c2ccc(C(=O)NC3CCN(Cc4ccccc4)CC3)cc2)cc1
→ x, 0.9, 10, 13, 1, 4147, -12
- O=C(c1ccccc1)c1ccccc1N/C=C/c1nnnn1-c1ccccc1
→ -10, -0.3, 3, 0, -15, 8402, -24
- O=C1c2ccccc2[C@@H]2CC(O)C(O)CCN12 (stereo not given in full)
→ x, -1.7, -7, 4, -2, 4048, -9
- CCN(CC)CCCNC(=O)Cn1ccc2ccccc2c1=O
→ 1, 5.6, 2, 6, 2, 3200, -26
- O=C1C(Nc2ccccc2)=C2CCCC=C2N1c1ccccc1
→ -10, 1.9, 15, 1, 1, 4001, -35
- CC1CC(C)CN(S(=O)(=O)c2cc3c4c(c2)C(C)C(=O)N4CCC3)C1 (stereo not given)
→ -7, 4.4, -4, 2, 3, 5375, -16
- COCCOC(=O)c1[nH]c2c(c1C)C(=O)CC(c1ccc(OC)c(OC)c1)C2 (stereo not given)
→ 0, 1.2, 8, -5, 5, 4063, -18
- CCNc1nc(NC(C)C)nc(N(C#N)CCOc2ccc(Cl)cc2Cl)n1
→ 1, -8.4, 5, 12, -7, 9539, -72
- COc1ccc(CN(CC(=O)NCc2ccccc2)C(=O)CCC(=O)Nc2ccccn2)cc1
→ -1, 3.2, -4, -4, 6, 4405, -21
- COc1cc(OC)c(OC)cc1CNCc1ccco1
→ -10, -0.3, 4, -8, 6, 4058, -3
- Cc1ccc(-n2ncc3c(=O)n(CC(N)=O)cnc32)cc1
→ -2, 0.6, 3, -4, 4, 3511, -3
- CCc1ccc(CNC(=O)C2CCN(S(=O)(=O)N3CCC4(CC3)OCCO4)CC2)cc1
→ -8, 2.5, 13, 5, 5, 4517, -24
- C/C(=N\OCC(=O)Nc1ccccc1C(=O)O)c1cccs1
→ 6, x, x, x, x, 4274, -23
- CCOC(=O)N1CCC(N2CC34C=CC(O3)C(C(=O)Nc3ccc(OCC)cc3)C4C2=O)CC1 (stereo not given)
→ -7, -4.6, x, x, -8, 4222, -16
- Cc1noc(C)c1COc1ccccc1C(=O)NCCc1ccccc1
→ x, 2.7, 3, 8, 1, 6073, -8
- N=c1sccn1CC(=O)Nc1ccc2c(c1)CCC2
→ 0, 3.6, 1, 8, -13, 3854, -20
- COc1ccc(CNC(=O)COC(=O)Cc2ccc(Br)cc2)cc1
→ x, 0.8, 0, 8, 9, 3118, -7
- CCCCOC(=O)c1cc(=O)[nH]c2ccc(C)cc12
→ x, 8.6, 3, 0, -8, 4682, -7
- COc1ccc(-n2nc(C(=O)NCC(=O)Nc3cc(OC)c(OC)c(OC)c3)c3ccccc3c2=O)cc1Cl
→ 15, -1.5, 1, 10, 7, 3499, 4
